Screening data from PubChem BioAssay.
StopGo reporter = FMDV 2A StopGo reporter, luciferase signal; Potency, µM (doses to about 57.9 µM), inactives show top-dose signal change, negative = less light; hit rate 1.2% among 410,000; human cells with a luciferase reporter of 2A StopGo recoding; control for the full effect not named in the record; active = well fitted falling curve with a large enough effect; inconclusive = small, poorly fitted or top-dose-only effect; inactive = no such curve, though single readings can be large or run the other way; tested in HEK293T cells; note: % is set by controls: 0 for no effect and ±100 for the full control effect; nearly all actives have a fitted effect of over 45% in size; luciferase light after 4 h
SARS PLP yeast = inhibitors of SARS-CoV papain-like protease in yeast; hit rate 0.19% among 330,000; Potency, µM (titrated, usually from 32.9 µM), for inactives: top-dose activity, positive = growth rescue; S. cerevisiae expressing SARS-CoV PLpro, growth rescue; control for the full effect not named in the record; active means well fitted rising curve with a large enough effect; inconclusive means small, poorly fitted or top-dose-only effect; inactive means no such curve, though single readings can be large or run the other way; note: 0% is about no effect; nearly all actives have a fitted effect of over 55% in size; growth read by luminescence after 48 h
Cruzain inh noDet = inhibitors of Trypanosoma cruzi cruzain without detergent | P25779 | purified cruzain, Z-FR-AMC fluorescence, no detergent | Potency, µM, without a hit: max response, negative = inhibition, most hits filed as inhibitors | hit rate 2.3% among 200,000;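 note: plate controls were enzyme without inhibitor for no effect and buffer without enzyme for full effect; nearly all actives have a fitted effect of over 40% in size; top concentration of the series not given in the record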
Target sequence (P25779 123-467 limits assumed): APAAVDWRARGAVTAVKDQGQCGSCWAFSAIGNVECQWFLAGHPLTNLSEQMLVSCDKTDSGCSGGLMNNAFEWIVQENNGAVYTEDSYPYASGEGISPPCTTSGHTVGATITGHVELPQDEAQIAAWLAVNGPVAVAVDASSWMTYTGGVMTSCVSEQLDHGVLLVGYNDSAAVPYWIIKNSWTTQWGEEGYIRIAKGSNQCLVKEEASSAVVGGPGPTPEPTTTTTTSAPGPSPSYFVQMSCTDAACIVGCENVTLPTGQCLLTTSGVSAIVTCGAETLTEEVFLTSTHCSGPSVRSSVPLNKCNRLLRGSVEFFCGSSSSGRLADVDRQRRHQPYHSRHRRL
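Purified cruzain at 1.5 nM, pre-incubated 15 min with compound at room temperature in 100 mM sodium acetate pH 5.5, 5 mM DTT, 0.00005% Triton X-100. Reaction started with 2 uM Z-FR-AMC; AMC fluorescence increase over 60 s gives rate.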
RE007 growth inh = less growth of the S. pombe RE007 Vpr strain | S. pombe RE007 Vpr strain, BacTiter-Glo ATP luminescence, 24 h; control for the full effect not named in the record | Potency, µM (highest dose often 92.2 µM), for the others: at the top dose activity change, negative = less growth | hit rate 0.21% among 360,000 | AID 651644; active = well fitted falling curve with a large enough effect; inconclusive = small, poorly fitted or top-dose-only effect; inactive = no such curve, though single readings can be large or run the other way;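 note: % is set by controls: 0 for no effect and ±100 for the full control effect; nearly all actives have a fitted effect of over 50% in size; the assay follows cell death caused by Vpr and the record does not say whether a fall means rescue or toxicity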
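Fission yeast RE007 carrying one integrated HIV-1 vpr copy, seeded at OD 0.01 in PMG+AL medium with 23 nL pinned compound. Grown 24 h at 30 degrees; viability read by BacTiter-Glo luminescence after 5 min.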
Cruzain inh Det = inhibitors of Trypanosoma cruzi cruzain with detergent; purified cruzain, Z-FR-AMC fluorescence, 0.01% Triton; Potency, µM, for inactives: max response, negative = inhibition, actives largely listed as inhibitors; hit rate 0.43% among 200,000; AID 1478;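 note: plate controls were neutral wells for no effect and buffer without enzyme for full effect; nearly all actives have a fitted effect of over 40% in size; top concentration of the series not given in the record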
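Read-out: AMC fluorescence (360 nm excitation, 450 nm emission), four reads over 2 min, first-to-third difference used. Conditions: cruzain 1.5 nM, Z-FR-AMC 2 uM, pH 5.5 acetate, 5 mM DTT, 0.01% Triton X-100.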
LASV entry inh = blocks Lassa virus binding to or entry into cells | Lassa virus pseudotype entry inhibition, cell reporter; control for the full effect not named in the record | Potency, µM (doses to about 37.9 µM), for the others: at the highest dose activity change, negative = inhibition, hits mostly inhibitors | hit rate 1.2% among 300,000; active means well fitted inhibition curve with a large enough effect; inconclusive means small, poorly fitted or top-dose-only effect, or effect the other way; inactive means flat fitted curve, though single readings scatter; tested in HEK293 cells; note: % is set by controls: 0 for no effect and ±100 for the full control effect; nearly all actives have a fitted effect of over 50% in size; luciferase read-out
NS1 inh = blocks influenza NS1 protein function; AID 2326; hit rate 0.4% among 270,000; S. cerevisiae slowed by influenza A NS1, growth recovery by OD600; Potency, µM (titrated, usually from 46.1 µM), for the others: top-dose activity, positive = more growth; active means well fitted rising curve with a large enough effect; inconclusive means small, poorly fitted or top-dose-only effect; inactive means no such curve, though single readings can be large or run the other way; note: nearly all actives have a fitted effect of over 50% in size
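Compounds were scored for reversing the slow growth caused by influenza A NS1 in S. cerevisiae, measured by optical density at 600 nm. Assay medium contained 2% galactose at pH 6.0; NS1-free yeast of the same strain were the positive control.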
Marburg entry inh = inhibitors of Marburg virus binding or cell entry; Potency, µM (top dose mostly 37.8 µM), inactives show at the highest dose activity change, negative = inhibition, hits mostly inhibitors; AID 540276; Marburg virus pseudotyped entry inhibition, cell reporter; control for the full effect not named in the record; about a third of the inactives were read at about 46 µM; hit rate 1.8% among 300,000; active = well fitted inhibition curve with a large enough effect; inconclusive = small, poorly fitted or top-dose-only effect, or effect the other way; inactive = flat fitted curve, though single readings scatter; tested in HEK293 cells; about a fifth of its hits are not listed in these tables; note: % is set by controls: 0 for no effect and ±100 for the full control effect; luciferase read-out
The depositor's hits bear a star; u = inconclusive; x = not tested or not shown; & = joins results of further samples; [ ] = another dose, or the depositor's remark. Unless noted, calls come from the whole dose curve; as a rule, active = well fitted curve in the direction sought with a large enough effect; inconclusive = small, poorly fitted or top-dose-only effect, or another doubt; inactive = no such curve, though single readings can be large; an effect the other way counts as inactive or inconclusive. Potency is the fitted concentration of half-maximal effect.

Below each SMILES: RE007 growth inh	Cruzain inh noDet	Cruzain inh Det	Marburg entry inh	NS1 inh	SARS PLP yeast	LASV entry inh	StopGo reporter
COc1ccc(C2Nc3ccccc3C(=O)N2Cc2ccco2)cc1CN1C(=O)c2ccccc2C1=O (stereo unspecified)
→ 15%&10%	u	-0.7%	u	22%	2%&1%	29%[46.1 µM]	1%
COc1cc(/C=N/Nc2nc(Nc3ccccc3)nc(-n3nc(C)cc3C)n2)cc(OC)c1OC
→ 0%	u	-5.6%	7.3µM*	-2%	-2%	16µM*	-12%
CCCNC(=O)c1cn(CC)c2cc(N3CCN(C(=O)c4ccco4)CC3)c(F)cc2c1=O
→ 2%	x	x	x	-6%	-1%	x	0%
COc1cc([N+](=O)[O-])ccc1-c1ccc(/C=N\n2cnnc2)o1
→ -8%	x	x	x	7%	0%	x	-11%
CCOc1ccc(C(=O)NC2CC(=O)N(c3ccc4c(c3)OCCO4)C2)cc1 (stereo unspecified)
→ -10%	x	x	-16%	x	x	-15%	-25%
O=[N+]([O-])c1ccc(OCCN2CCCCCC2)cc1
→ 4%	-5%	2.7%	u	6%	6%	0%	-8%
Cc1ccc(C(=O)c2cn(Cc3ccc(F)cc3)c3nc(C)ccc3c2=O)cc1
→ x	-1%	-1.8%	u	x	x	4%[46.1 µM]	-6%
CCOC(=O)C(=CNc1cc(C(F)(F)F)ccc1N1CCOCC1)C(=O)OCC
→ -12%	x	x	x	6%	1%	x	-22%
Cn1c(SCc2nc3ccccc3[nH]2)nnc1-c1cnccn1
→ 4%	-24%	-6.5%	13%	4%	-4%	16%	14%
CC(=O)N1N=C(c2ccc(Cl)cc2)OC12CCCC2
→ 0%	x	x	x	-2%	0%	x	-23%
O=C(NCCN1CCOCC1)C(=O)NCC1OCCN1S(=O)(=O)c1ccc(F)cc1 (stereo unspecified)
→ 6%	x	x	22%	11%	3%	11%	-6%
CC1=C(C(=O)OCc2ccccc2)C(c2cccc([N+](=O)[O-])c2)NC(=O)N1 (stereo unspecified)
→ -2%	x	x	x	27%	-2%	x	-29%
CC(=O)c1cc2c(cc1NC(=O)C1CC=CCC1C(=O)O)OCO2 (stereo unspecified)
→ 26%	-5%	-0.9%	1%[46.1 µM]	-5%	-4%	-1%	7%
Cc1cc(C)n2nc(NCc3ccccc3)nc2n1
→ -8%[3.69 µM]	0%	0.1%	6%	-47%	x	23%	19%
Cc1ccc2c(c1)c1c(n2CC(O)Cn2c(C)nc3ccccc32)CCCC1 (stereo unspecified)
→ -8%	-13%	-1.1%	x	6%	4%	x	-27%
CCc1ccc(NC(=O)C(C)OC(=O)CC(NC(C)=O)c2ccccc2)cc1 (stereo unspecified)
→ -13%	x	x	-2%[46.1 µM]	u	2%	-4%[46.1 µM]	-6%
C/C(=N\NC(=O)c1csc(C)c1C)c1ccco1
→ 3%	1%	-4.5%	u	2%	18%	-11%	13%
Cc1ccc(-c2cc(C(F)F)n3ncc(C(=O)N4CCc5ccccc5C4)c3n2)cc1
→ 9%	x	x	x	-8%	1%	x	-22%
Cc1ccc(NC(=O)Nc2sc3nc4n(c(=O)c3c2C)CCC(C)CC4)c(Cl)c1 (stereo unspecified)
→ x	18%	0.7%	u	x	x	x	-23%
Clc1cccc(Cl)c1-c1nnc2ccc(N3CCOCC3)nn12
→ 17%	-7%	-3.6%	u	4%	5%	-16%	-6%
Cc1cccc(-n2cc3c(=O)n(C)c(=O)n(C)c3c2)c1
→ 17%	x	x	0%[46.1 µM]	-6%	0%	28%[46.1 µM]	3%
COC(=O)CSc1nc2cc3c(cc2cc1C)OCCO3
→ 13%	-4%	-8.2%	-4%	-241%	-16%	30%	-13%
COc1ccc(OC)c(C2C(C(N)=O)=C(C)Nc3nc(-c4cccc(Cl)c4)nn32)c1 (stereo unspecified)
→ -18%	u	0.0%&-1.8%	-1%	6%	3%	-27%	1%&-4%
COc1ccc(CNC(=O)CCCSc2ccccc2)cc1
→ 7%	x	x	-2%[46.1 µM]	-17%	-1%	12%	1%
COCC(=O)N/N=C(\C)CC(=O)NCc1ccco1
→ 28%	x	x	10%[46.1 µM]	x	-5%	1%[46.1 µM]	-10%
O=C(Nc1cccc(-c2nn[nH]n2)c1)c1cccs1
→ -2%	x	x	2%[46.1 µM]	-5%	-2%	6%[46.1 µM]	-4%
Cc1ccc(CN2C(=O)NC(=O)C3(Cc4c(nc5ccccn5c4=O)N4CCCCCC43)C2=O)cc1 (stereo unspecified)
→ 19%	18%	-22%	u	-8%	4%	-13%	-28%
Cc1ccc(NC(=O)c2ccsc2)cc1NS(C)(=O)=O
→ -4%	x	x	2%	-5%	-1%	u	10%
Cc1cc2cc(C(c3nnnn3Cc3ccco3)N3CCc4ccccc43)c(=O)[nH]c2cc1C (stereo unspecified)
→ 39%	4%	-11%	u	6%	u	u	-20%
O=C(COc1ccccc1F)NCc1ccc(-n2cccc2)cc1
→ -14%	x	x	-8%	x	1%	u	-12%
Cc1ccccc1Cn1c2ccccc2c2cnn(CC(=O)NCc3ccccn3)c(=O)c21
→ -3%	u	-3.3%	4%&4%[46.1 µM]	8%	-4%	-1%[46.1 µM]	-12%&-12%
COc1ccc(NC(=O)CCNC(=O)Cn2cnc3ccccc3c2=O)cc1OC
→ -9%	x	x	u	-6%	0%	4%	-4%
CC1CCCN(C(=O)Cn2c(=O)oc3ccccc32)C1 (stereo unspecified)
→ 17%	-10%	2.4%	-4%	1%	-2%	-7%	-24%
O=Cc1ccc(OC(=O)CCCCC(=O)Oc2ccc(C=O)cc2)cc1
→ -15%	x	x	x	-65%	-6%	x	-4%
O=[N+]([O-])c1ccc(Cl)cc1P(=O)(O)c1cc(Cl)ccc1[N+](=O)[O-]
→ 2%	x	x	2%	x	x	14%[46.1 µM]	-12%
CO/C([O-])=N/c1c[n+](-c2ccc(Cl)cc2)no1
→ -3%	-2%	0.8%	-1%	-2%	1%	31%	20%
Cc1ccc2nc(NC(=O)c3ccco3)sc2c1
→ u	-15%	-6.2%	4.5µM*	-121%	-16%	1µM*	-79%
COc1cccc(OC)c1C(=O)NC(C)C12CC3CC(CC(C3)C1)C2 (stereo unspecified)
→ 10µM*	3%	-0.8%	-1%[46.1 µM]	-51%	-40%	6%	-3%
NNC(=O)c1cccc(COc2cccc(Br)c2)c1
→ 0%	7%	-0.5%	27%	25%	-5%	u	37%
COc1ccc(-n2c(C)cc(C(=O)Cn3nc(C(=O)O)c4ccccc4c3=O)c2C)cc1
→ -10%	u	-2.7%	17%	17%	13%	9%	-19%
CCOc1ccc(NC(=O)CN2C(=O)C3CC=CCC3C2=O)cc1 (stereo unspecified)
→ -5%	4%	3.8%	9%	4%	-2%	8%	24%
CCc1nnc(NC(=O)c2ccc(S(=O)(=O)N3CCCCC3C)cc2)s1 (stereo unspecified)
→ -3%	-5%	2.9%	2%	6%	3%	1%	x
CCOC(=O)c1cc(-c2ccc(Cl)cc2)nc2c1c(C)nn2CCC#N
→ 5%	u	-13%	u	-55%	-1%	1%	-12%
CN(c1ccccc1)S(=O)(=O)c1cccc(C(=O)NC2CCCCC2)c1
→ 2%	x	x	-25%	x	-27%	u	30%
C=CCNCCOc1cccc(Br)c1
→ 2%	5%	0.3%	-6%	13%	15%	-1%	-15%
Cn1c(SCC(=O)Nc2cccc(F)c2)nc2c(c1=O)SCC2
→ 1%	x	x	-14%	9%	20%	-13%	u
CCOC(=O)C1=CSC2=NS(=O)(=O)CCN12
→ 14%	0%	2.9%	-19%	u	4%	-15%	x
CCN(CC)C(=O)c1ccc(NC(=O)CNC(C)c2cccc3ccccc23)cc1 (stereo unspecified)
→ -10%	x	x	u	0%	2%	-5%[46.1 µM]	21%
CC(C)c1ccccc1OCC(=O)N1CCCCCCC1
→ 10%	x	x	u	-10%	-5%	-5%	-21%
CCOc1ccc(NC(=O)CSc2nnnn2-c2ccc(C(N)=O)cc2)cc1
→ -13%	x	x	-19%	3%	1%	15%	11%
COc1cccc(NS(=O)(=O)c2ccc3c(c2)NC(=O)C(C)S3)c1 (stereo unspecified)
→ 16%	x	x	x	24%	2%	x	-1%
CC1=C(C(=O)OCC(C)C)[C@]23C(=O)c4ccccc4[C@@]2(O1)OC(N)=C3C#N
→ 14%	5%	-13%	4%	-6%	8%	-9%	11%
COc1cc(C(=O)N2CCN(c3ccc(Nc4ccccc4)nn3)CC2)cc(OC)c1OC
→ x	-5%	-2.2%	x	x	x	9%[46.1 µM]	-6%
Cn1c(SCC(=O)NC2CC2)nnc1-c1ccccn1
→ 1%	x	x	x	17%	0%	x	-4%
CC(=O)Nc1ccc(OCC(O)CN2CCN(S(=O)(=O)c3ccc(NC(C)=O)cc3)CC2)cc1 (stereo unspecified)
→ 8%	-7%	4.7%	25%	2%	-4%	3%	-11%
CCC1CN(C(=O)NCc2cccc(OC)c2)c2ccccc2O1 (stereo unspecified)
→ -13%	u	-5.2%	x	-7%	-2%	u	-21%&2%
Clc1ccc(COn2ccnc2)cc1Cl
→ -12%	x	x	x	2%	-2%	x	11%
CN(C)S(=O)(=O)c1ccc(N2CCCC2)c(C(=O)OCC(=O)N2CCN(c3ccccc3)CC2)c1
→ 1%	x	x	-12%	x	x	u	-14%
CCOC(=O)N1CCN(S(=O)(=O)c2cc(OCC(N)=O)c(C)cc2Cl)CC1
→ -5%	6%	-4.4%	2%	-1%	-1%	-3%	-21%
O=C(COc1ccc([N+](=O)[O-])cc1)Nc1cccc2cccnc12
→ x	10%	-4.1%	-1%[46.1 µM]	x	x	8%[46.1 µM]	-19%
Cn1c(N)c(C(=O)COC(=O)COc2ccccc2Cl)c(=O)n(C)c1=O
→ -5%	x	x	1%	x	3%	u	-15%
COc1ccccc1-c1ccc(Nc2cccc(C(F)(F)F)c2)nn1
→ 2%	5%	0.4%	0%	24%	u	-1%	-21%
